GIV-Gai inh – inhibitors of GIV peptide binding to Galpha-i3, primary screen, biochemical, fluorescence polarization, FITC-GIV GBA peptide, rat Galphai3. Guanine nucleotide-binding protein G(i) subunit alpha-3 (Rattus norvegicus), P08753. 90 min; stronger effect = lower value; scaled: aluminum fluoride 0%, vehicle 100%. percent of control (FP), % (no concentration beside the values). hit rate 0.42% among 210,000. AID 1224905, 2016;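 active = replicate mean at 85% of control or lower, very high polarization wells dropped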;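 note: wells of about 15 µL received 100 nL stock; the first replicate is given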
Target sequence (P08753 whole entry, looked up): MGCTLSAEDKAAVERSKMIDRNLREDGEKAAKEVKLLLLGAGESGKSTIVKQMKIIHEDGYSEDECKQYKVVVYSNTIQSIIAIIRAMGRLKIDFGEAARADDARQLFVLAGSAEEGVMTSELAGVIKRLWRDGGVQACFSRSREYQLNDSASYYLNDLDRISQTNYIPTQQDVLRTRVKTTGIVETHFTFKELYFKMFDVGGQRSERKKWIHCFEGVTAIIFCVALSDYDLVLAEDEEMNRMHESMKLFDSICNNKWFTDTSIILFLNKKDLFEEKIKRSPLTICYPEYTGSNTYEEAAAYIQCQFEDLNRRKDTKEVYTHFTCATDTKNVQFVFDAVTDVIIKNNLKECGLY
Sa growth inh – S. aureus growth inhibition at 42 and 30 °C, primary screen, LtaS inhibitor project, RN4220, two temperatures | OD600, 20 h, 42 °C; stronger effect = lower value | relative growth, % (concentration not given with the values) | hit rate 0.53% among 170,000 | AID 720641, 2013;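 active = growth at 42 °C up to 50% and 20 or more points under that at 30 °C, or under 10% at both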;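 note: 300 nL library stock went into each well; scaled to the means of positive and negative controls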
HCMV NEC inh – inhibitors of HCMV UL50-UL53 interaction, biochemical, HTRF. AID 1918969, 2023. HCMV UL50-UL53 nuclear egress complex (human cytomegalovirus). hit rate 0.15% among 190,000. normalized percent inhibition. inhibition, % (test concentration not listed);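 active = both replicates at 50% or more, plus weaker picks with an unusually low signal ratio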;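 note: stock transfer was 100 nL into about 20 µL; 0% = negative control wells and 100% = wells with untagged competitor protein; inactives centre near -12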
Sa growth inh second temp – further read-out of Sa growth inh, marked with its call; relative growth, %; measured here: growth at 30 °C;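 optical density after 20 h as mean of two plates; 100% = untreated growth and lower means inhibition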
Active calls of the source: *; · = no result given; & = joins results of further samples.

The line under a structure holds: GIV-Gai inh	Sa growth inh	Sa growth inh second temp	HCMV NEC inh
1) Cc1noc(C)c1S(=O)(=O)Nc1ccc(C(=O)Nc2ccc(Br)cc2)cc1
 : 108.2	98.7	51.4	-12.1
2) COc1cccc(C(=O)Nc2ccc3nc(SCCOc4ccccc4)sc3c2)c1
 : 96.2	99.0	89.7	-15.7
3) CCc1ccccc1NC(=O)CN1CCN(C(=O)C2CCCN2S(=O)(=O)c2ccc(C)cc2)CC1 (configuration not stated)
 : ·	107.2	99.8	-15.2
4) CCOC(=O)c1cccnc1SCC(=O)NC(C)CC (configuration not stated)
 : 95.8	118.5	85.7	·
5) CCOC(=O)c1sc2nc(N)c(C#N)c(-c3ccc(OCC)cc3)c2c1N
 : 101.4	·	·	-6.9
6) N#Cc1nn(-c2ccccc2)c(=O)[nH]c1=O
 : 105.3	79.9	80.5	-66.6
7) O=C(NCc1ccccc1)N(Cc1nc2ccccc2c(=O)[nH]1)C1CCCC1
 : 105.3	104.3	60.8	-3.5
8) O=C(NCc1ccc(F)cc1)N1CCCC1c1cccs1 (configuration not stated)
 : 98.4	·	·	-19.2
9) CCCSc1nc(=O)c2c(n1C)NC(=O)CC2c1cccc(F)c1F (configuration not stated)
 : 100.7	103.5	88.8	-23.4
10) CCCCOc1ccc(S(=O)(=O)Nc2ccc(-c3ccc(N4CCCCCC4)nn3)cc2)cc1
 : 109.0	95.3	89.3	·
11) CC(C)OC(=O)CN1CCN(S(=O)(=O)c2ccc(C(C)C)cc2)CC1
 : 111.0	91.3	92.8	·
12) CCOC(=O)C1=C(CSc2n[nH]c(N)n2)NC(=O)NC1C (configuration not stated)
 : ·	87.5	83.2	-21.5
13) Nc1c(C(=O)Nc2ccc(F)cc2)sc2nc(-c3cccs3)cc(C(F)(F)F)c12
 : -12.2*	104.7	85.4	-47.6
14) Cc1ccc(C(=O)N2CCN(c3cc(=O)n4nc(-c5ccc(C)cc5)sc4n3)CC2)cc1
 : 105.0	·	·	-19.9
15) O/N=C/c1c(F)c(F)c(F)c(F)c1F
 : ·	102.2	91.2	-34.7
16) CC(C)NC(=O)Nc1ccc2c(c1)N(C)C(=O)c1ccccc1S2
 : 101.8	107.6	89.5	16.3
17) CCCNC(=O)CN
 : ·	103.8	97.2	8.0
18) CCc1ccc(C(=O)c2cn(CC(=O)Nc3ccc4c(c3)OCCO4)c3ccc(CC)cc3c2=O)cc1
 : 109.0	103.0	87.3	-3.5
19) Cc1cc(Nc2ccccc2F)nc(C)n1
 : 98.1	·	·	-14.1
20) CCn1nc(C)c(C(C#N)N2N=C(C)CC2c2ccccc2)c1C (configuration not stated)
 : 105.7	105.9	72.5	-23.4
21) CCNC(=S)NCC1CC1
 : 100.1	97.6	93.9	-4.2
22) COc1ccccc1NC(=O)c1c(C)cc(C)nc1SCC(=O)Nc1ccc(C)cc1
 : 97.2	95.1	81.5	-19.5
23) COc1ccc(-n2ncc3c(NC4CCCC4)ncnc32)cc1
 : 104.2	101.8	95.5	·
24) COC(=O)c1ccc(NC(=O)Cn2c(-c3cncs3)nc3ccccc32)cc1
 : 96.0	89.6	88.9	-2.4
25) CC1(C(=O)NCc2ccc3c(c2)OCO3)CCN(C(=O)NCc2ccc(F)cc2)CC1
 : 101.8	·	·	-17.7
26) Cc1ccc(/C(C#N)=C\c2cccs2)cc1
 : 106.0	93.2	88.1	-4.5
27) COC(=O)C(O)(CC(=O)Nc1cccc(SC)c1)C(F)(F)F (configuration not stated)
 : 95.7	101.4	77.5	-6.8
28) O=C(O)CNCc1c(Cl)cccc1Cl
 : 101.7	88.8	82.3	·
29) CN1CCOc2cc(/C=C3\C(=O)Nc4ccccc43)ccc21
 : 224.5	70.4	39.4	-88.5
30) Cn1nnnc1NC(=O)c1ccccc1
 : 96.0	84.3	89.1	-13.4

Printed as active in GIV-Gai inh, among the entries above:
| nr | canonical_smiles | GIV-Gai inh | Sa growth inh second temp |
| --- | --- | --- | --- |
| 13 | Nc1c(C(=O)Nc2ccc(F)cc2)sc2nc(-c3cccs3)cc(C(F)(F)F)c12 | -12.2* | 85.4 |

Other records.
The line under a structure holds: GIV-Gai inh	Sa growth inh	Sa growth inh second temp	HCMV NEC inh
31) CC1CCCC(C)N1C(=S)SCC(=O)O (configuration not stated)
 : ·	117.4	96.7	-13.3
32) CC(=NCc1ccc(C#N)cc1)c1c(C)cc(C)cc1O
 : 100.6	91.8	101.7	-16.2
33) CN(C)CCN(C(=O)CN1C(=O)c2ccccc2C1=O)c1nc2c(F)cc(F)cc2s1
 : 104.9	130.2	91.8	·
34) COC(=O)c1c(SCC(=O)NC2CCCCC2)[nH]c2ccccc2c1=O
 : 107.5	97.0	85.3	1.2
35) Cc1nn(-c2ccccc2)c(Cl)c1C(=O)N1CCN(C)CC1
 : ·	106.4	88.7	-14.6
36) Cc1ccc(NC(=O)c2cc3sc4ccccc4c3s2)cc1C
 : 106.2	·	·	-2.7
37) CC(=O)Nc1c(Cl)cc(Cl)c2cccnc12
 : 101.2	131.1	94.7	-7.1
38) Nc1oc2c(CN3CCCCCC3)c(O)ccc2c(=O)c1-c1nc2ccccc2s1
 : 101.1	101.9	69.2	·
39) C=CCc1ccc(OCc2ccccc2)c(OC)c1
 : ·	100.9	93.1	-12.5
40) CN=c1scc(C)n1/N=C/c1c[nH]c2ccc(Br)cc12
 : ·	90.3	103.1	13.8
41) Cc1ccc2cc3cc(C(=O)NCCCN4CCCC4)oc3nc2c1
 : 104.4	112.4	79.2	·
42) CSc1ccc(S(=O)(=O)N2CCC(C(=O)NCCN3CCOCC3)CC2)cc1
 : 101.3	90.8	89.2	·
43) CC(C)OCCCn1c(=O)c2ccccc2n2c(=O)n(CC(=O)NC3CCCCC3)nc12
 : 100.7	·	·	8.2
44) CCOc1ccc(NS(=O)(=O)c2cc(C(=O)N3CCN(c4cccc(Cl)c4)CC3)n[nH]2)cc1
 : 98.9	·	·	-13.6
45) Cc1cc(C)c2c(-n3cccc3)nn(Cc3ccc(C(=O)NCc4cccnc4)cc3)c2n1
 : 106.0	·	·	-18.8
46) O=C(CCc1nc2sc3c(c2c(=O)[nH]1)CCCCC3)NCc1ccc2c(c1)OCO2
 : 99.4	·	·	-22.4
47) O=C(NCC(c1cccnc1)N1CCOCC1)c1ccc2c(c1)OCO2 (configuration not stated)
 : 100.3	97.1	91.0	-11.7
48) O=C(CSc1nnc(-c2ccc3c(c2)OCO3)n1-c1ccccc1)NC1CCCC1
 : ·	101.4	94.4	-10.2
49) S=c1n(CN2CCOCC2)nc(-c2ccccc2Br)n1-c1ccccc1
 : 106.9	88.0	72.1	-21.8
50) Cc1cc(C(=O)N2CCN(c3ccccc3)CC2)c2cccc(-c3ccccc3)c2n1
 : 109.0	·	·	-10.3
51) Cc1ccc(S(=O)(=O)N(C)c2nc3ccccc3nc2N2CCCC(C(N)=O)C2)cc1 (configuration not stated)
 : ·	113.1	91.2	-12.7
52) COc1cccc(CN(C(=O)c2ccccc2)C2CCS(=O)(=O)C2)c1 (configuration not stated)
 : 105.1	112.0	89.6	-2.7
53) CC(=O)NCc1ccc(C(=O)CSc2nc3cc(Cl)ccc3s2)o1
 : ·	105.5	81.8	-13.4
54) O=C1CC(c2ccco2)CC2=C1C1c3ccccc3C(=O)N1c1ccccc1N2 (configuration not stated)
 : 99.8	88.4	90.6	-19.1
55) Cc1nnc(-c2cccc(S(=O)(=O)NCCc3ccccc3)c2)o1
 : 103.3	99.3	82.9	-20.6
56) CCc1nc(-c2ccc3c(c2)CCN3C(=O)Cc2ccc(C)cc2)no1
 : 105.0	·	·	-20.5
57) N#CCOC(=O)C1c2ccccc2Oc2ccccc21
 : ·	78.0	85.6	-23.0
58) COc1ccc(-c2cc(C(=O)Nc3ccccc3)c3ccccc3n2)cc1
 : 99.9	·	·	-19.7
59) CCc1cccc(C)c1NS(=O)(=O)c1cc2[nH]c(=O)c(=O)[nH]c2cc1C
 : 104.8	107.5	91.9	·
60) COc1cc(/C=N/n2c(=O)[nH]c3ccccc3c2=O)ccc1OCC(=O)O
 : ·	77.2	92.4	-39.4
61) COc1ccc(CCNCc2c(C(=O)O)c(C)n(Cc3ccccc3C)c2C)c(OC)c1
 : 104.5	101.7	78.9	-35.7
62) CCc1cccc(NC(=O)Cn2ccn3nc(-c4ccc(OC)c(OC)c4)cc3c2=O)c1
 : 105.6	79.2	91.3	·
63) CNC(=O)C1Cc2cc(S(=O)(=O)N3CCCC3)ccc2N1C(C)=O (configuration not stated)
 : 99.6	93.0	86.5	-20.4
64) CC(C)CCN(C)C1CCN(S(=O)(=O)c2cccc(Cl)c2)CC1
 : 108.9	84.5	81.7	·
65) CCNC(=O)CC1C(=O)N(c2ccc(F)cc2)C(=O)N1CCOC (configuration not stated)
 : 105.8	98.6	90.2	3.2
66) c1cc(-c2nc3ccccc3s2)nc(-c2nc3ccccc3s2)c1
 : 107.3	92.3	91.2	·
67) CCOC(=O)C1CCN(c2ncnc3c2cnn3-c2cccc(C)c2)CC1
 : 102.7	81.7	56.6	-9.5
68) CCNC(=O)Cn1c(=O)c(=O)n(Cc2ccccc2)c2ccc(Cl)cc21
 : ·	99.5	100.6	10.8
69) Cc1ccc(-n2c(CN3CCN(S(=O)(=O)c4cccc5nsnc45)CC3)nc3cccnc32)cc1
 : 104.4	·	·	-30.0
70) Cc1ccc(OCc2ccc(C(=O)Nc3nccs3)o2)cc1C
 : 109.1	77.1	91.2	·
71) CCN1CCN(C(c2cccs2)C(C)NC(=O)c2ccccc2)CC1 (configuration not stated)
 : 101.7	96.7	104.1	16.7
72) O=C(COC(=O)C12CC3CC(CC(C3)C1)C2)c1ccc(Br)cc1
 : 99.1	117.2	95.6	·
73) COc1ccc(CCNC(=O)C2CCN(S(=O)(=O)c3c(C)noc3/C=C/c3ccc(C)cc3)CC2)cc1OC
 : 95.9	90.3	90.2	·
74) Cc1ccc(CNC(=S)NN(C)C)cc1
 : 101.1	110.3	87.8	2.4
75) O=C(Cc1n[nH]c(=O)c2ccccc12)Nc1nc(CN2CCOCC2)cs1
 : ·	100.7	89.0	-5.9

Entries of single compounds from above. Screens in order: GIV-Gai inh, Sa growth inh, Sa growth inh second temp, HCMV NEC inh
CN=c1scc(C)n1/N=C/c1c[nH]c2ccc(Br)cc12 is listed as ·, 90.3, 103.1, 13.8
CC1CCCC(C)N1C(=S)SCC(=O)O (configuration not stated) is listed as ·, 117.4, 96.7, -13.3
CC(C)OCCCn1c(=O)c2ccccc2n2c(=O)n(CC(=O)NC3CCCCC3)nc12 is listed as 100.7, ·, ·, 8.2
Cc1ccc(/C(C#N)=C\c2cccs2)cc1 is listed as 106.0, 93.2, 88.1, -4.5

Continuation:
The line under a structure holds: GIV-Gai inh	Sa growth inh	Sa growth inh second temp	HCMV NEC inh
76) COc1ccc(-c2nnc(SC(C)C)n2-c2ccccc2)cc1
 : 105.9	120.1	114.7	10.8
77) CCOC(=O)COc1ccccc1C1C(C(=O)OC)=C(C)NC2=C1C(=O)c1ccccc12 (configuration not stated)
 : 101.4	95.3	89.3	-44.5
78) Cc1csc2ncc(C(=O)N3c4ccccc4CC3C)c(=O)n12 (configuration not stated)
 : 102.5	114.5	86.4	·
79) COC(=O)c1ccccc1NC(=O)c1cc2c(s1)-c1ccsc1CC2
 : 105.1	·	·	3.8
80) CCCCNC(=O)c1cc(-c2ccc(Cl)c(Cl)c2)on1
 : 99.9	100.5	88.0	-7.7
81) COCCn1ccc2c(OCC(=O)Nc3c(C)cc(C)cc3C)cccc2c1=O
 : 96.5	103.6	96.4	·
82) Oc1ccccc1-c1nc(-c2ccccc2)no1
 : 104.3	102.4	92.9	·
83) CCOC(=O)Nc1ccc(NC(=O)OCC)cc1
 : 103.6	80.5	84.1	-17.9
84) CCOCCCNC(=O)c1cc(-c2cnn(-c3ccc(CC)cc3)c2C)nc2ccccc12
 : 103.6	·	·	-47.9
85) Cc1ccc(-c2noc(-c3cn(Cc4ccc(NS(=O)(=O)c5ccc(C(C)(C)C)cc5)cc4)cn3)n2)cc1
 : 105.0	·	·	-24.8
86) Cc1oc2ccc(O)c(CN(C)Cc3ccccc3)c2c1C(=O)Nc1ccccc1
 : 105.8	107.3	75.6	16.9
87) Cc1nc2ccccc2c2c1C(=O)CC(c1ccc(F)cc1)=N2
 : 101.6	100.3	88.6	·
88) COc1ccc(OC)c(CNC(=O)Cc2ccc(NC(=O)N3CCCCc4ccccc43)cc2)c1
 : 102.1	128.7	76.2	·
89) COCCOC(=O)C1=C(C)NC(C)=C(C(=O)OC(C)C)C1c1cccc([N+](=O)[O-])c1 (configuration not stated)
 : 100.3&91.0	86.1&93.6&88.7	82.3&83.8&89.1	-41.0&-55.8&-12.1&-12.5&-26.4&-28.6&-12.7

Source: PubChem BioAssay (ICCB-Longwood Screening Facility, Harvard Medical School)
